Screening results deposited in PubChem by ICCB-Longwood Screening Facility, Harvard Medical School.
CapD inh = Bacillus anthracis CapD inhibitors, primary screen, biochemical, fluorescence intensity; AID 492967, 2010; CapD gamma-glutamyltranspeptidase (Bacillus anthracis Ames Ancestor); z-score (no concentration beside the values); purified CapD enzyme, fluorescence intensity read-out; active compounds read low; some hits fall short of the stated cut; 140,000 tested, 0.23% active;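 active means z-score under -4 in either of two replicates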;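 further: stock transfer was 100 nL into about 40 µL; score is relative to mean and spread of the plate; one replicate is shown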
AID504770 = growth inhibition of E. coli YBA685, primary screen, V. cholerae RctB inhibitors; z-score (no concentration beside the values); 130,000 tested, 0.27% active; AID 504770, 2011; E. coli YBA685 rctB-dependent plasmid, OD600 growth, 3 h; active compounds read low;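 active means z-score under -2 on both plates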;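 further: wells of about 30 µL received 100 nL stock; score is relative to mean and SD of the test wells; the first replicate is given; strong numbers were not always called active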
* = called active by the depositor; nt = no result given.

Below each compound – CapD inh	AID504770
1	COc1cccc(N(CC(=O)N2CCC(C(N)=O)CC2)S(C)(=O)=O)c1
  nt	0.2
2	Cc1ccc(C(C)n2cc(C(=O)NCC3CCCO3)nn2)cc1 (stereo not given)
  0.82	-0.85
3	O=C(COCc1nc2ccccc2s1)Nc1ccc(-c2nnc3n2CCCCC3)cc1
  nt	-0.05
4	C[C@]12CCC(=O)C=C1CC[C@@H]1[C@@H]2C(=O)C[C@@]2(C)[C@H]1CC[C@]2(O)C(=O)CO
  -0.28	nt
5	CC(=O)Nc1ccc(S(=O)(=O)NC2CC(=O)N(c3ccc(F)cc3)C2)cc1 (stereo not given)
  nt	-0.65
6	COc1ccc(C(=O)NNC(=O)OCCCc2ccccc2)cc1
  -0.74	nt
7	CCCS(=O)(=O)c1c(S(=O)(=O)CCC)c2ccccn2c1C(=O)N/N=C/C(C)C
  -0.34	nt
8	CC(C)(C)N(Cc1ccccc1)C(=O)CSc1nc2c(cnn2-c2ccccc2)c(=O)[nH]1
  nt	-0.3
9	N#Cc1c(/N=C/c2ccco2)sc2c1CCCC2
  -0.39	0.25
10	CC(COC(=O)NNC(=O)c1ccc2nccnc2c1)N(Cc1ccccc1)Cc1ccccc1 (stereo not given)
  -0.62	nt
11	Cc1cc(C(=O)Cn2ncc(Cl)c(Cl)c2=O)c(C)n1Cc1ccco1
  nt	0.2
12	O=C1N=c2ccc(Br)cc2=C1c1sc(=S)n(Cc2ccc(Cl)cc2)c1O
  0.33	nt
13	CC1(C)CC2CC(C)(CN2C(=O)CSc2nc3ccccc3c(=O)[nH]2)C1 (stereo not given)
  nt	-0.8
14	C/C(=N\O)C(=O)c1ccc(Br)cc1
  -0.26	0.3
15	Clc1cccc(OCCN2CCOCC2)c1
  -0.36	-0.75
16	c1ccc2c(SCc3cn4ccccc4n3)nncc2c1
  1.2	-0.75
17	CCNC(=O)N(C1CC1)C1CCN(Cc2ccccc2)CC1
  -0.64	nt
18	CC(C)CC1(C(=O)O)NC(c2ccccc2O)C2C(=O)N(C(C)C)C(=O)C21 (stereo not given)
  0.35	-0.05
19	N#CCCN1c2ccccc2Sc2ccc(C(F)(F)F)cc21
  0.15	nt
20	Cc1nn(-c2ccccc2)c(C)c1P(=Nc1ccc(Br)cc1)(N1CCOCC1)N1CCOCC1
  nt	-0.35

Exported screen by screen: part of the list above
[11] Cc1cc(C(=O)Cn2ncc(Cl)c(Cl)c2=O)c(C)n1Cc1ccco1
[12] O=C1N=c2ccc(Br)cc2=C1c1sc(=S)n(Cc2ccc(Cl)cc2)c1O
[13] CC1(C)CC2CC(C)(CN2C(=O)CSc2nc3ccccc3c(=O)[nH]2)C1 (stereo not given)
[14] C/C(=N\O)C(=O)c1ccc(Br)cc1
compound no. | 11 | 12 | 13 | 14
CapD inh | nt | 0.33 | nt | -0.26
AID504770 | 0.2 | nt | -0.8 | 0.3

The listing continues:
Below each compound – CapD inh	AID504770
21	CC1(C)CC(=O)c2cc(C#N)c(SCc3ccccc3)nc2C1
  -0.28	1.4
22	Cc1cccc(-c2nc(C)c(CCNC(=O)C(C)(C)C)s2)c1
  3	-0.05
23	COCCNC(=O)c1ccc(CS(=O)(=O)Cc2ccc(C)cc2)o1
  0.86	-0.8
24	COC(=O)c1cc(N(C)C)nc(N(C)C)n1
  -0.68	nt
25	Cc1cccc(NC2=NCC(C)S2)c1C (stereo not given)
  nt	-0.6
26	COc1ccc(OC)c(Nc2nc3nonc3nc2Nc2cccc(Cl)c2)c1
  -0.68	nt
27	CN1CCC(=NOC(=O)Nc2ccccc2)CC1
  0.23	1.4
28	Cc1ccc(C2CC(=O)CC(=O)C2)cc1
  -0.49	nt
29	CCOC(=O)c1cnn(-c2ccc(C(C)C)cc2)c1C1CCN(C(=O)OC(C)(C)C)CC1
  0.87	0.25
30	CC(C)C(NC(=O)c1ccco1)C(=O)N1CCC(Cc2ccccc2)CC1 (stereo not given)
  nt	-0.25
31	O=C(CSc1nnc(-c2cccs2)o1)Nc1cc(C(F)(F)F)ccc1N1CCOCC1
  nt	0.5
32	O=C(NCc1ccc(Cl)cc1)c1cc2ccccc2nc1Cl
  -0.49	-2.7
33	O=C(NC(Cc1ccccc1)C(=O)Nc1ccc([N+](=O)[O-])cc1)OCCCc1ccccc1 (stereo not given)
  -1.1	nt
34	COc1ccc(C2=NN3C(C2)c2cc(Br)ccc2OC3c2ccc(OCc3ccccc3)cc2)cc1 (stereo not given)
  3	nt
35	CC1Cc2ccccc2N1NC(=O)c1ccc(Cl)c(S(N)=O)c1 (stereo not given)
  0.54	nt
36	CCOC(=O)Cn1nnc(CSc2ccc(Cl)cc2)n1
  -0.55	2.9
37	O=S(=O)(c1ccc(Br)s1)N1CCN(c2cccc(Cl)c2)CC1
  -1.1	nt
38	O=C1CCCCC1Sc1nc2sccc2c(=O)n1-c1ccccc1 (stereo not given)
  nt	-0.6
39	CCNc1nc(CN2CCOCC2)nc2scc(-c3ccccc3)c12
  nt	-0.3
40	CCN(CC)CCCC(C)NS(=O)(=O)c1ccc(OC)cc1 (stereo not given)
  0.62	nt
41	COc1ccc(OC)c(C2C3=C(CCCC3=O)Nc3ncnn32)c1 (stereo not given)
  -0.54	nt
42	CC(C)CCNC(=O)c1cc2c(s1)CS(=O)(=O)C2
  0.46	-0.7
43	CNC(=O)c1ccccc1S(=O)c1cccc2cccc(C(=O)O)c12 (stereo not given)
  0	-0.65
44	N#CCCn1cc(C=C2C(=O)NC(=O)NC2=O)c(-c2ccccc2)n1
  nt	-0.3
45	CCN(CC)S(=O)(=O)c1ccc(Cl)c(C(=O)OC)c1
  -0.17	1.8
46	Cc1cc(NC(=O)CN(Cc2ccccc2)S(=O)(=O)/C=C/c2ccccc2)no1
  nt	-1.2
47	CNC(=O)c1cn2c3c(ccc(Cl)c3c1=O)OC(C)C2 (stereo not given)
  110	-0.65
48	Cc1noc(C)c1NC(=O)NC1CCCCNC1=O (stereo not given)
  0.13	0.95
49	CS(=O)(=O)N1CCN(S(=O)(=O)c2ccccc2)CC1
  nt	0.05
50	CCC1(C)NC(=O)N(/N=C/C2CC=CCC2)C1=O (stereo not given)
  nt	0.1
51	O=C(c1csc2c1CCCCC2)N1CCN(c2ccccc2)CC1
  73	0.05
52	O=C(NCCSCc1ccco1)c1ccccc1
  0.14	nt
53	CC1CCc2ccc(F)cc2N1S(=O)(=O)c1cccs1 (stereo not given)
  0.17	-0.35
54	O=C(Cn1nc(Cc2cccnc2)c2ccccc2c1=O)Nc1ccc(Oc2ccccc2)cc1
  5.5	1.4
55	O=C(c1cnn2c1NC(c1cccs1)CC2C(F)(F)F)N1CCSCC1 (stereo not given)
  nt	-0.3
56	CCC(C)NC(=O)CN1CCc2cc(-c3csc(C)n3)ccc21 (stereo not given)
  nt	0.65
57	O=C(OCC(=O)N1CCCCC1)c1cc(-c2ccccc2)nc2ccccc12
  2	0.75
58	O=C1OC2(O)C3C4C=CC(C4)C3C(=O)N2c2ccccc21 (stereo not given)
  0.63	0.2
59	c1ccc(-c2cc(-c3ccco3)no2)cc1
  -0.25	-1.2
60	CCOc1ccc(C=Nc2ccc3sc(C)nc3c2)cc1
  6.8	-0.25
61	Cc1[nH]c2ccccc2c1C(=O)COC(=O)C1CC(=O)N(Cc2ccco2)C1 (stereo not given)
  nt	-0.75
62	Cc1c(CCC(C)C)c(NCCN2CCOCC2)n2c(nc3ccccc32)c1C#N
  nt	-0.8
63	COC(=O)c1cc(-c2cccs2)nc2ccccc12
  67	-0.8
64	CCN(CC)S(=O)(=O)c1cccc(-c2nn(CN3CCN(c4ccc(O)cc4)CC3)c(=S)o2)c1
  nt	-0.5
65	CCOC(=O)C1=C(O)/C(=C/c2cccc(O)c2)SC1=Nc1ccc(OC)cc1
  -0.17	nt
66	O=[N+]([O-])c1ccc(Oc2cccc(Cl)c2)nc1
  -0.32	nt
67	Cn1cc(S(=O)(=O)N2CCCC2)cc1C(=O)NC1CCN(Cc2ccccc2)CC1
  0.51	0.2
68	Cc1cc(S(=O)(=O)Nc2cc(Br)c3oc4c(c3c2)C(=O)CCC4)ccc1Cl
  -0.76	-0.2
69	Nc1ccccc1N=CC1=C(O)CC(c2ccccc2)CC1=O (stereo not given)
  -2.2	-0.4
70	O=C(Cc1csc(-c2cccs2)n1)N1CCN(S(=O)(=O)c2ccccc2C(F)(F)F)CC1
  nt	-1.3
71	C=CCNc1cc(C(F)(F)F)nc(-c2ccccn2)n1
  1.1	0.5
72	CC1(C)Cc2c(c(N3CCOCC3)nc3sc(C(=O)O)cc23)CO1
  28	1.6
73	CCOC(=O)C(C)Oc1cc2oc(=O)cc(-c3ccccc3)c2cc1Cl (stereo not given)
  0.39	2.4
74	CCCN1C(=O)C2(/C(=C(/O)c3ccc(F)cc3)C(=O)C(=O)N2CCN(C)C)c2ccccc21 (stereo not given)
  -0.18	-1.1
75	CC(=O)Nc1ccc(C(=O)CCC#N)cc1
  0.44	-1.5
76	Cc1nc2ccc(C(=O)NCCN(C)C)cc2nc1C
  -1.1	-0.5
77	c1ccc2c(c1)NCC2CN1CCOCC1 (stereo not given)
  nt	-1.1
78	COC(=O)c1sc(NC(=O)CSc2nnc3cc(C)c4ccccc4n23)c(C(=O)OC)c1C
  -0.66	nt
79	CC(C)C(NC(=O)Cc1ccc(S(=O)(=O)N2CCOCC2)s1)c1nc2ccccc2[nH]1 (stereo not given)
  nt	-0.05
80	COc1ccc(-n2nc(C(=O)NCC(=O)N3CC(C)CC(C)C3)c3ccccc3c2=O)cc1 (stereo not given)
  0.58	0.4

(further entries)
Below each compound – CapD inh	AID504770
81	Cn1ccsc1=NC(=O)c1cccc(S(=O)(=O)N2CCc3ccccc32)c1
  nt	0
82	CCOC(=O)c1c(C)nc(SC)nc1-c1ccccc1
  5.9	nt
83	CNC(=O)c1ccccc1S(=O)c1ccccc1CO (stereo not given)
  -0.16	-0.5
84	N#CCSCC(=O)Nc1ccccc1
  -0.31	1.9
85	COc1ccc(CSCCN)cc1Cl
  nt	-1.8
86	CCOC(=O)c1c(SC)n[nH]c1C
  -0.23	-0.2
87	Cc1ccc(CC23CN4CC(CN(C4)C2)C3=O)c(C)c1
  nt	0.5
88	O=C1/C(=C/c2ccc(-c3ccc(Br)cc3)o2)C=C(c2ccccc2)N1c1cccc(Br)c1
  1.6	nt
89	O=C(NC1CCCCCCC1)C1CCCN(c2nc3ccccc3o2)C1 (stereo not given)
  -0.86	-0.8
90	CCCC(CCC)C(=O)Nc1cccc(-c2nc3ccccc3[nH]2)c1
  4.5	1.7
91	CCn1c2ccccc2c2nnc(SCC(=O)Nc3ccc(S(N)(=O)=O)cc3)nc21
  -0.77	1.6
92	Cc1ccn2cc(-c3cccc(Cl)c3)nc2c1
  81	-1.1
93	S=c1cc(-c2ccccc2)[nH]c(=S)[nH]1
  -1.1	-0.05
94	Cc1csc(SCC(=O)c2ccc3c(c2)OCO3)n1
  nt	0.5
95	CN1CCCC(C(=O)c2ccccc2)C1 (stereo not given)
  nt	-0.95
96	Cc1ccccc1OCc1n[nH]c(=S)n1C
  0.12	-0.85
97	COc1ccc(NC(=O)C2Oc3ccccc3OC2C)cc1 (stereo not given)
  -0.68	nt
98	Cc1cccc(C)c1NC(=O)c1cc2sccc2nc1C(F)(F)F
  -0.055	nt
99	Cc1cnc(NC(=O)c2c(O)c3c(n(CC(C)C)c2=O)CCCC3)s1
  0.15	nt
100	O=CC12c3ccccc3C(c3ccccc31)C1C(=O)N(c3ccc(F)cc3)C(=O)C12 (stereo not given)
  -0.25	nt

Complete entries from above. Order of screens: CapD inh	AID504770
`Cc1ccc(CC23CN4CC(CN(C4)C2)C3=O)c(C)c1` reads nt	0.5
`S=c1cc(-c2ccccc2)[nH]c(=S)[nH]1` reads -1.1	-0.05
`O=CC12c3ccccc3C(c3ccccc31)C1C(=O)N(c3ccc(F)cc3)C(=O)C12` (stereo not given) reads -0.25	nt
`Cc1csc(SCC(=O)c2ccc3c(c2)OCO3)n1` reads nt	0.5

(list continues)
Below each compound – CapD inh	AID504770
101	C=CCN1C(=O)C(C)(C)S/C1=N\S(=O)(=O)c1ccc(C)cc1
  nt	-0.5
102	Clc1ccc(CNc2ncnc3[nH]ncc23)c(Cl)c1
  nt	0.05
103	COc1ccc(/C(N)=N/O)cc1
  0.16	nt
104	CN(C)/C=C/C(=O)c1cccs1
  -4.9*	-0.9
105	CC1CCc2c(sc3nc(CSc4nnc(-c5ccccc5)o4)[nH]c(=O)c23)C1 (stereo not given)
  nt	-0.15
106	O=C(NCCc1ccc(Cl)cc1Cl)c1cc(-c2ccccc2)nc2ccccc12
  1.4	nt
107	CN(C)S(=O)(=O)N1CCC(Oc2cccc(-n3cnnn3)c2)CC1
  0.43	0.05
108	Cc1csc(SCc2cc(=O)c(OC(=O)c3ccc(S(=O)(=O)N4CCOCC4)cc3)co2)n1
  nt	2.6
109	O=c1ccc(Cl)nn1-c1ccccc1
  -0.12	-0.2
110	O=C1C2C3C=CC(O3)C2C(=O)N1CCNc1ncc(C(F)(F)F)cc1Cl (stereo not given)
  0.23	nt
111	CN(CC(=O)NCc1cccs1)c1ccccc1
  nt	-0.8
112	O=C1c2ccccc2C2N1CCCN2S(=O)(=O)c1ccccc1 (stereo not given)
  -0.35	nt
113	O=C1CSCC(=O)N1Cc1cccc(C(F)(F)F)c1
  0.33	-0.1
114	COC(=O)c1ccc(COC(=O)c2cc(OC)cc(OC)c2)cc1
  nt	2
115	CCC(C)(C)NS(=O)(=O)c1cc2[nH]c(=O)c(=O)[nH]c2cc1C
  111	-0.65
116	COc1ccc2[nH]cc(CCNC(=O)OCCCCCCN(C)C)c2c1
  0.18	nt
117	O=C1CCCN1c1ccc(S(=O)(=O)Nc2ccc3oc4c(c3c2)CCCC4)cc1
  0.24	-0.45
118	CCN1/C(=C2/SC(=S)N(Cc3ccccc3)C2=O)Sc2ccc(Cl)cc21
  -0.18	nt
119	Cc1cc(S(=O)(=O)n2nnc3ccccc32)c(C)cc1Br
  -0.42	nt
120	Cc1ccc(/C=C/C(=O)NC(c2ccc3c(c2)OCCCO3)C(C)C)o1 (stereo not given)
  nt	-1.2
